HCMV NEC inh – inhibitors of HCMV UL50-UL53 nuclear egress complex interaction. HTRF UL50-UL53 interaction, normalized percent inhibition. inhibition, % (no concentration beside the values). 190,000 tested, 0.15% active. AID 1918969;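 active = both replicates at 50% or more, plus weaker picks with an unusually low signal ratio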;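 note: stock transfer was 100 nL into about 20 µL; 0% = negative control wells and 100% = wells with untagged competitor protein; inactives centre near -12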
GIV-Gai inh – inhibitors of GIV GBA-motif binding to rat Galpha-i3. 210,000 tested, 0.42% active. percent of control (FP), % (concentration not given with the values). AID 1224905. Galpha-i3/FITC-GIV peptide fluorescence polarization, 90 min; active compounds read low; scaled: aluminum fluoride 0%, vehicle 100%;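 active = replicate mean at 85% of control or lower, very high polarization wells dropped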;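 note: wells of about 15 µL received 100 nL stock; the first replicate is given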
Target sequence (P08753 whole entry, looked up): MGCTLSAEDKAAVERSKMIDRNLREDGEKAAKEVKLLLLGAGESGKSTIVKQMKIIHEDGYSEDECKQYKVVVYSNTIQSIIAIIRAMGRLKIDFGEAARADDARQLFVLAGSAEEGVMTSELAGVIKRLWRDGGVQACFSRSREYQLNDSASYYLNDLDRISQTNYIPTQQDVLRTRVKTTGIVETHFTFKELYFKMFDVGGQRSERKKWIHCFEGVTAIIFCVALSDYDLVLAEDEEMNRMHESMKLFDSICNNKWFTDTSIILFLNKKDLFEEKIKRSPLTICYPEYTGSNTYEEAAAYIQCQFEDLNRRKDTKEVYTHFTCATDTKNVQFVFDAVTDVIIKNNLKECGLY
Sa growth inh – blocks Staphylococcus aureus growth; 170,000 tested, 0.53% active; relative growth, % (concentration not given with the values); S. aureus RN4220 growth, OD600, 20 h, 42 °C; active compounds read low;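 active = growth at 42 °C up to 50% and 20 or more points under that at 30 °C, or under 10% at both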;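 note: 300 nL library stock went into each well; scaled to the means of positive and negative controls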
Sa growth inh second temp – second read-out of Sa growth inh, no call of its own (marks repeat the call); relative growth, %; measured here: growth at 30 °C;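 optical density after 20 h as mean of two plates; 100% = untreated growth and lower means inhibition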
The depositor's hits bear a star; nt = no result given; & = joins results of further samples.

SMILES	HCMV NEC inh	GIV-Gai inh	Sa growth inh	Sa growth inh second temp
Nc1c(C(=O)c2ccc(Br)cc2)sc2nc(-c3cccs3)ccc12	1.4	nt	91.5	87.7
CCCn1c2ccccc2c2cnn(CC(=O)N(C)c3ccccc3)c(=O)c21	-32.9	107.6	105.3	89.6
CCOC(=O)c1c(C)[nH]c(C)c1S(=O)(=O)N(C)CC(=O)NCc1cccc(Br)c1	nt	97.8	87.0	84.7
O=c1c(O)c(-c2ccc(O)c(O)c2)oc2cc(O)cc(O)c12	-9.7&-11.2&-13.1&-16.9&-16.9&-61.0&-27.2&-57.7	121.0	nt	nt
CCN1CCN(C(=O)CCC(=O)c2cccs2)CC1	-22.6	nt	97.7	83.0
C/C(=N\OC(=O)c1cccc(C(F)(F)F)c1)c1csc(-c2ccno2)n1	-11.8	100.5	93.4	99.5
Cc1cc(C)c(S(=O)(=O)NCc2cn3ccsc3n2)cc1C	-20.2	103.2	nt	nt
COc1ccc(Cn2c(CCC(=O)O)nc3cccnc32)cc1	-0.6	104.2	96.3	88.3
OCc1cnn(-c2ccccc2)c1	-9.4	nt	104.0	87.8
NC(=O)C(Cc1ccccc1)N1C(=O)c2ccccc2C1=O (stereo not given)	-49.2	nt	84.1	83.6
CCOC(=O)c1cc(-c2ccc(C)cc2)n(CCC(=O)Nc2ccc(OC)c(OC)c2)c1C	-33.2	101.8	114.0	85.2
Cc1ccc(CNc2cc(C)nc3nc(-c4cccc(C)c4)nn23)cc1	nt	105.2	105.9	98.7
NS(=O)(=O)c1ccc(N(C(=O)Cn2nnc3ccccc32)C(C(=O)NC2CCCC2)c2cccs2)cc1 (stereo not given)	-13.0	100.4	88.0	81.5
CCn1cc(C(=O)OCC(=O)Nc2ccc(OC)cc2)c(=O)c2ccc(C)nc21	-6.2	105.0	105.2	97.7
Cc1csc(N(C(=O)CSc2nc(C3CC3)n(-c3ccccc3)n2)c2ccccc2)n1	0.8	nt	101.3	95.5
CN(C(=O)CSc1nnc(-c2cc3ccccc3n2C)o1)c1ccccc1	-16.4	98.6	nt	nt
Cc1ccc(-c2csc3ncnc(NCc4ccc5c(c4)OCO5)c23)cc1	-22.4	114.7	nt	nt
CCN(CC)CCCNc1oc(-c2ccc(OC)cc2)nc1C#N	nt	100.2	89.4	97.9
COC(=O)c1ccc2c(=O)[nH]c(COC(=O)c3ccc4c(c3)OCO4)nc2c1	-4.5	nt	96.6	83.1
Cc1nc(N2CCN(c3ccccn3)CC2)c2c(C)c(C(=O)N3CCN(c4ccccc4)CC3)sc2n1	-19.9	108.8	nt	nt
O=S(=O)(c1ccccc1)N1CCN(Cc2ccccc2)CC1	0.7	92.4	135.9	98.1
Cc1nc2ccccc2c(=O)n1CCNc1cccc2ccccc12	-24.6	104.7	96.1	79.6
O=C(Oc1ccccc1-c1nc(-c2ccccc2)no1)c1ccccc1	-18.1	100.6	122.3	96.1
COC(=O)c1cc(S(=O)(=O)NCCc2ccccc2)c[nH]1	-11.7	103.9	89.9	89.4
Cn1c(=O)n(Cc2ccccc2)c(=O)c2c1nc1n2CCCN1c1cccc(Cl)c1	-42.3	100.0	83.9	82.3
CCOC(=O)c1ccc(NC(=O)CSc2nnc(-c3ccncc3)n2-c2ccccc2)cc1	nt	104.7	113.5	87.1
Cc1oc(-c2cccc(Cl)c2)nc1CN1CCN(C(=O)CC(C)C)CC1	-2.0	103.1	nt	nt
COc1ccc2c(CNC3CCC(C)CC3)c(C(=O)O)n(Cc3ccc(F)cc3)c2c1 (stereo not given)	nt	99.2	93.0	80.5
CN1C(=O)c2ccccc2Sc2ccc(NC(=O)N3CCN(c4ccc(F)cc4)CC3)cc21	-3.0	107.9	122.2	91.0
COc1ccc(C(=O)NCCn2c(-c3ccccc3)nc3cccnc32)cc1OC	-21.5	103.1	nt	nt
CC1CCCCN1C(=O)c1cc(I)ccc1NC(=O)c1cccnc1 (stereo not given)	-2.6	109.4	101.2	95.6
CCCCS(=O)(=O)/C=C\C1C2C=CC(C2)C1S(=O)(=O)CCCC (stereo not given)	-23.6	106.0	119.0	85.1
COc1ccccc1NC(=S)N/N=C/c1cccnc1	-29.9	nt	85.8	73.5
O=C1CC(N2C(=O)C3CC=CCC3C2=O)C2COC1O2 (stereo not given)	-1.8	nt	102.5	94.0
CCc1ccc(NS(=O)(=O)c2ccc3[nH]cc(C(=O)NCCCOC(C)C)c(=O)c3c2)cc1	-14.8	98.8	105.4	87.9
C/C(CCc1ccccc1)=N/NS(C)(=O)=O	8.4	106.0	128.9	90.3
Oc1[nH]c2ccccc2c1C=NCc1cccc(F)c1	-22.8	103.2	105.2	109.7
O=C(C1CC(c2ccc(F)cc2)=NO1)N1CCCCC1 (stereo not given)	31.4	101.1&118.8	124.0	96.6
CCOc1ccc(C2Nn3c(nnc3-c3ccccc3)SC2C(=O)N2CCCCC2C)cc1 (stereo not given)	3.3	101.2	100.2	98.7
CCOC(=O)c1nc(N2CCc3cc(OC)c(OC)cc3C2C)c2ccccc2n1 (stereo not given)	-48.1	105.4	85.9	55.8
CCOC(=O)CNc1nc(Cl)nc(Nc2ccccc2)n1	-15.4	102.2	90.0	97.1
Cc1cc(C)c2[nH]c(O)c(N=NC(=S)NCC3CCCO3)c2c1 (stereo not given)	-27.3	nt	105.9	92.7
O=C(O)c1ccc(NC(=O)c2cc3ccccc3o2)cc1	-20.1	100.9	95.2	68.4
CCOc1ccc2c(c1)c(=O)c1cccnc1n2CC(=O)Nc1cccc(C)c1C	-5.7	108.2	102.4	102.5
Cc1cccc(-c2cc3nc4c(c(N5CCCC5)n3n2)CCCC4)c1	-9.5	106.8	88.1	73.8
CC1(C(=O)NC2CCCCC2)Cn2c(cc3ccsc32)C(=O)N1Cc1cccnc1 (stereo not given)	-7.1	110.9	nt	nt
CC1CN(Cc2c(O)ccc3ccccc23)CC(C)O1 (stereo not given)	-43.9	nt	120.1	78.8
COCCNC(=S)Nc1ccc2nc(N3CCN(C)CC3)cc(C)c2c1	-7.5	97.1	89.7	89.8
O=C(CSc1nc(-c2ccccc2F)nc2cc(=O)[nH]n12)Nc1cccc(C(F)(F)F)c1	nt	95.2	2.8*	0.7*
CC1CCN(CC(C)OC(=O)c2ccco2)CC1 (stereo not given)	-4.3	99.0	87.5	84.8
Cc1ccc2cc(CNCc3cccnc3)c(=O)[nH]c2c1	-23.4	106.4	100.5	92.6
Cc1cccc(NC(=O)Cn2c(=O)n(CCc3ccccc3)c(=O)c3sc4ccccc4c32)c1	20.1	113.4	91.1	96.3
CC1(C)CC2CC(C)(CN2C(=O)Cn2nc(C(=O)O)c3ccccc3c2=O)C1 (stereo not given)	-57.1	nt	69.4	89.8
Cc1nc(-n2[nH]c(C)c(CC(=O)N3CCCC3)c2=O)sc1C	-21.7	93.0	nt	nt
O=C1CCSC2(C(=O)N(Cc3ccccc3)c3ccccc32)N1c1ccccc1 (stereo not given)	nt	113.4	134.8	76.7
COC(=O)c1cnn(-c2ccccc2)c1/C=N/O	-2.1	102.2	105.6	89.4
COc1cc(C2C3=C(CCCC3=O)OC3=C2C(=O)CCC3)ccc1OCc1ccccc1	-9.0	108.8	nt	nt
O=C(Nc1cccc(Cl)c1Cl)c1ccc2c(c1)N(Cc1cccc(Cl)c1)C(=O)c1ccccc1S2=O (stereo not given)	nt	102.0	95.5	86.0
Cn1ccc(-c2ccccc2)n1	-40.9	105.1	95.1	98.7
O=C(CN1C(=O)S/C(=C\c2ccccc2)C1=O)Nc1nccs1	-8.3	107.4	95.9	87.5

In the list so far, these have a thiophene ring, fused or not:
SMILES	HCMV NEC inh	GIV-Gai inh	Sa growth inh	Sa growth inh second temp
Nc1c(C(=O)c2ccc(Br)cc2)sc2nc(-c3cccs3)ccc12	1.4	nt	91.5	87.7
CCN1CCN(C(=O)CCC(=O)c2cccs2)CC1	-22.6	nt	97.7	83.0
NS(=O)(=O)c1ccc(N(C(=O)Cn2nnc3ccccc32)C(C(=O)NC2CCCC2)c2cccs2)cc1 (stereo not given)	-13.0	100.4	88.0	81.5
Cc1ccc(-c2csc3ncnc(NCc4ccc5c(c4)OCO5)c23)cc1	-22.4	114.7	nt	nt
Cc1nc(N2CCN(c3ccccn3)CC2)c2c(C)c(C(=O)N3CCN(c4ccccc4)CC3)sc2n1	-19.9	108.8	nt	nt
CC1(C(=O)NC2CCCCC2)Cn2c(cc3ccsc32)C(=O)N1Cc1cccnc1 (stereo not given)	-7.1	110.9	nt	nt
Cc1cccc(NC(=O)Cn2c(=O)n(CCc3ccccc3)c(=O)c3sc4ccccc4c32)c1	20.1	113.4	91.1	96.3

Of the compounds above, 4 have a Cl atom:
SMILES	HCMV NEC inh	GIV-Gai inh	Sa growth inh	Sa growth inh second temp
Cn1c(=O)n(Cc2ccccc2)c(=O)c2c1nc1n2CCCN1c1cccc(Cl)c1	-42.3	100.0	83.9	82.3
Cc1oc(-c2cccc(Cl)c2)nc1CN1CCN(C(=O)CC(C)C)CC1	-2.0	103.1	nt	nt
CCOC(=O)CNc1nc(Cl)nc(Nc2ccccc2)n1	-15.4	102.2	90.0	97.1
O=C(Nc1cccc(Cl)c1Cl)c1ccc2c(c1)N(Cc1cccc(Cl)c1)C(=O)c1ccccc1S2=O (stereo not given)	nt	102.0	95.5	86.0

Continued:
SMILES	HCMV NEC inh	GIV-Gai inh	Sa growth inh	Sa growth inh second temp
O=C1CCCC2=C1C(c1cccs1)C1C(=O)c3ccccc3C1=N2 (stereo not given)	-115.3	nt	89.9	72.5
O=C(CCc1cn(-c2ccccc2)nc1-c1ccc2c(c1)OCO2)N1CCOCC1	10.4	104.3	nt	nt
CC1(C(=O)NC2CCCC2)Cn2c(ccc2-c2ccccc2)C(=O)N1CCc1ccccc1 (stereo not given)	-7.8	103.3	nt	nt
CC(=O)NC(=O)/C(=C(/C)Nc1ccccc1)c1ccccc1	15.0	nt	94.2	95.9
O=C(NO)c1csc(-c2cccnc2)n1	-26.7	106.0	98.5	84.7
COc1ccc(-c2cnc3ncnn3c2N)cc1OC	-27.4	99.9	nt	nt
O=C1OCCC1Sc1nnc(-c2ccccc2)n1-c1ccc(Cl)cc1 (stereo not given)	11.6	nt	86.9	91.3
CN(C(=O)CSc1nc(-c2ccccc2)cs1)C1CCS(=O)(=O)C1 (stereo not given)	14.3	nt	99.8	97.7
CCOc1ccc(CCNC(=O)CN2CCN(Cc3ccc(F)cc3Cl)C2=O)cc1OCC	-8.1	107.1	112.0	83.7
N#C/C=C/N(C#N)c1ccccc1	-6.7	nt	95.2	70.7
Cc1cc(SCC(=O)c2ccccc2)nc(=O)[nH]1	9.5	112.5	98.3	97.5
COc1cccc(Nc2ccc3cc(S(=O)(=O)N4CCCCC4)ccc3n2)c1	-4.5	103.7	nt	nt
CCOc1ccccc1N(Cc1nc2nc(C)cc(=O)n2[nH]1)C(=O)CC(C)C	-10.8	101.7	nt	nt
CCOc1cc(CNCCSc2nnnn2C)ccc1OC	-22.4	97.7	nt	nt
Fc1ccccc1/C=C/c1ccncc1	-69.6	nt	68.9	34.3
Cc1ccc(C(=O)N2CCn3c4c(c5cc(C)ccc53)CCCC42)cc1 (stereo not given)	-3.9	101.9	85.2	88.4
COc1ccc(-c2cc(C)no2)cc1S(=O)(=O)N1CCCC(CN2CCc3ccccc3C2)C1 (stereo not given)	10.8	112.0	nt	nt
Cc1nc2c3ccccc3[nH]c(=O)n2n1	-2.0	nt	97.4	88.3
O=C(Cn1c(=O)oc2ccccc21)NCCN1CCc2ccccc2C1	-8.0	99.0	107.8	88.1
COc1ccc(/C(N)=C/C2=NC(C)(C)CO2)cc1	-12.7	nt	89.0	89.9
CN(Cc1cccs1)S(=O)(=O)c1ccc2c(c1)OCCO2	-9.9	nt	79.2	88.7
CC1(c2ccccc2)CC(C)(C)N(C(=O)c2cccc(Cl)c2)c2ccccc21 (stereo not given)	0.7	105.6	88.2	74.8
O=C(CCS(=O)(=O)c1ccccc1)Nc1ccc2c(c1)OCCO2	-36.0	103.9	102.9	98.9
CCCNC(=O)N1Cc2c(sc3c2CCCC3)-n2cccc2C1C (stereo not given)	-29.7	105.9	nt	nt
Cc1ccc(C)n1-c1ccc(C(=O)NNC2=NCCC2)s1	-2.6	nt	100.7	87.9
CCOc1ccc(-n2c(O)c(C=NCCCN3CCOCC3)c3ccccc3c2=O)cc1	-49.1	nt	94.7	92.9
O=C(c1cc(-c2ccc(Br)cc2)n[nH]1)N1CCN(S(=O)(=O)c2ccc(Br)cc2)CC1	nt	101.4	121.1	90.0
Cc1ccc(CNC(=O)c2cccc(NC(=O)N3CCSc4ncccc43)c2)cc1	nt	96.8	86.8	89.5
CCOC(=O)C1=C(C)N=c2s/c(=C\c3cc4c(cc3Cl)OCO4)c(=O)n2C1c1ccc(OC)cc1 (stereo not given)	-25.4	102.8	nt	nt
Cc1cc(C)cc(NS(=O)(=O)c2c(C)nc3scc(C)n3c2=O)c1	-7.1	102.9	94.7	91.1
CCOC(=O)CCc1c(C)nc2c(c(C)nn2-c2ccc(C)cc2)c1C	-0.2	109.4	86.8	96.1
CSc1ccc(CNCc2c(C(=O)O)c(C)n(Cc3ccc(F)cc3Cl)c2C)cc1	-11.5	103.6	104.4	97.0
O=C(c1ccc(CN2C(=O)CCn3nccc32)cc1)N1CCOCC1	nt	112.5	87.2	92.6
Fc1cccc(-c2csc(-c3ccno3)n2)c1	-6.4	109.5	103.1	98.9
O=C(CN1C(=O)c2ccccc2S1(=O)=O)NCc1ccncc1	-20.0	102.9	87.2	83.4
CCOC(=O)c1nc2ccccc2c(C)c1C	-19.4	nt	103.7	81.1
